Compound activity (PubChem BioAssay)
BJeLR viability = MLPCN primary cell-based screen for lethality selective to Ras in HRASV12 cells; BJeLR (HRASV12) viability, CellTiter-Glo ATP luminescence, 48 h; reference of the scale not given here; inhibition, % (test concentration not listed); actives 0.17% (n = 300,000);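 active means replicate mean above 50%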;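 further: 50 nL library stock added to about 25 µL; numbers are from one replicate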
Bead autofluor = compound fluorescence in toxin protease inhibitor counterscreen; compound autofluorescence counterscreen, microsphere flow cytometry; hits give high values; fluorescence intensity (concentration not given with the values); actives 3.1% (n = 360,000); AID 624483;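 active means at least 3 SD above the mean of all compounds, about 16000 in these data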;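 further: 100 nL of 1 mM stock went into each well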
Mtb hypoxia inh = PubChem AID 1159583. actives 0.1% (n = 300,000). M. tuberculosis hypoxia-regulated fluorescent reporter, fluorescence. fluorescence inhibition, % (test concentration not listed);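 active means 35 to 45% if threefold the growth effect, above 45% if 1.5-fold the growth effect; inactive means the rest, general growth blockers included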;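 further: wells of about 50 µL received 100 nL stock; 0% = vehicle wells and 100% = reference inhibitor wells; whole bacteria with a GFP reporter of the hypoxia response; strong numbers were not always called active; many hits fall short of the cut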
PrP UTR inh = inhibition of PrP 5' UTR reporter expression; cell-based PrP 5' UTR mRNA reporter, plate reader; inhibition, % (no concentration beside the values); actives 0.35% (n = 340,000);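 active means every replicate at 50% or more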;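 further: 0 = median of the neutral control wells; tested in H4 reporter cells; numbers are from one replicate; inactives centre near -14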
Sa ugtP lethal = growth inhibition of ugtP-null S. aureus, primary screen, RN4220 ugtP deletion, OD600; 16 h; some inactives read as strong as hits; growth inhibition, % (test concentration not listed); actives 0.54% (n = 330,000);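 active means z-score under -3 and OD600 up to 0.15 on both plates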;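 further: plate controls were untreated wells for no effect and antibiotic for full effect; wells of about 80 µL received 100 nL stock; the first replicate is given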
Sa RN4220 lethal = growth inhibition of S. aureus RN4220, primary screen, OD600; 16 h; inhibition, % (concentration not given with the values); actives 0.33% (n = 330,000);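 active means z-score of -3 or lower and OD600 up to 0.18 on both plates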;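 further: plate controls were untreated cells for no effect and reference antibiotic for full effect; stock transfer was 100 nL into about 80 µL; one replicate is shown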
Mtb hypoxia inh growth = second read-out of Mtb hypoxia inh, no call of its own (marks repeat the call); growth inhibition, %; measured here: M. tuberculosis growth (absorbance);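 0% = vehicle and 100% = reference antibiotic; read after six days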
Numbers without * were called inactive; nt = not tested or not shown; & = joins results of further samples.

SMILES	BJeLR viability	Bead autofluor	Mtb hypoxia inh	Mtb hypoxia inh growth	PrP UTR inh	Sa ugtP lethal	Sa RN4220 lethal
O=[N+]([O-])c1cccc(-c2noc(-c3cccs3)n2)c1	-5	6462	9	6	-98	-9	4.9
CC(=NNC(=O)c1ccc(F)cc1)c1cccc(NC(=O)c2ccco2)c1	nt	nt	5	5	nt	-7	4.4
CCc1ccc(NC(=O)CSc2nnc(CNC(=O)c3cccs3)o2)cc1	-23	5584	3	-7	0	0	-0.1
O=C1CC(=O)CC(c2ccco2)C1	nt	4353	nt	nt	-21	-2	-1.0
CCSc1ccc([C@@H]2[C@@H]3C(=O)N(C)C(=O)[C@@H]3[C@]3(C(=O)OC)CCCCN23)cc1	-9	3644	nt	nt	-3	nt	nt
Cc1nnc(SCC(=O)NNC(=O)c2ccccc2)n1-c1ccccc1	5	2401	11	1	-10	-2	2.1
Cc1ccc(NC(=O)CSc2ncc(S(=O)(=O)c3ccccc3)c(=O)[nH]2)cc1C	0	11702	12	4	-36	4	1.9
COC(=O)[C@@]1(Cc2ccc(OC)cc2)[C@H]2c3cc(C(=O)N(C)C)[nH]c3C[C@H]2CN1C(=O)c1ccccc1	-2	3720	nt	nt	-2	nt	nt
CC1CCC(C(=O)NC(C(=O)N2CCc3ccccc3C2)C(C)C)CC1 (centres undefined)	0	8823	7	0	-23	-1	-2.1
CC(NC(=O)CCCc1ccccc1)c1ccncc1 (centres undefined)	-2	nt	11	-6	-22	13	6.8
C=CCN1C(=O)C(=c2sc3nc(=O)c(Cc4ccccc4Cl)nn3c2=O)c2ccccc21	nt	nt	3	11	nt	1	5.2
CCOc1ccc(N(CC(=O)NC2CCCCCC2)S(=O)(=O)c2ccccc2)cc1	-1	5340	0	1	-16	10	2.1
CCc1nc2ccccc2c(C(=O)OCC(=O)Nc2ccc(S(=O)(=O)N3CCOCC3)cc2)c1C	3	4488	nt	nt	-8	-2	-1.6
C=CCNc1oc(-c2cccc(Cl)c2)nc1C#N	nt	3888	18	8	-17	-12	8.6
COc1cccc(/C=C(/C#N)c2ccc(F)cc2)c1OCc1cccc(C(=O)O)c1	6	2100	10	8	3	1	19
C/C(Cn1cnc([N+](=O)[O-])n1)=N\NC(=O)c1ccc(F)cc1	-3	3522	nt	nt	-1	nt	nt
CSCCC(NC(=O)c1ccccc1Br)C(=O)N1CCC(C)CC1 (centres undefined)	-3	4335	6	0	-19	10	1.5
Cc1cccc(C)c1NC(=O)CN(C)C(=O)C1CCN(c2ncnc3sc(C)c(C)c23)CC1	-14	6131	0	4	-9	0	-2.8
COc1ccc(Cl)cc1NC(=O)CN1C(=O)CCS(=O)(=O)c2ccccc21	4	2905	13	8	-20	-6	-7.9
CC[C@]1(C(=O)OC)[C@H]2C(=O)N(Cc3ccccc3)C(=O)[C@H]2[C@H]2CN=C(SCc3ccc(C)cc3)N21	nt	2948	1	3	-14	4	9.5
CCOC1OC(C(=O)N2CCN(C)CC2)=CC(c2ccc(C(F)(F)F)cc2)C1CCCO (centres undefined)	nt	nt	13&7	0&14	nt	-1&-4	4.1&3.6
CN1CCN(C(=O)C2=C[C@H](c3ccc(Br)cc3)C[C@H](OCCCCO)O2)CC1	-2	3598	nt	nt	-9	nt	nt
CCCOc1cccc(-c2cc(C(=O)NN)c3ccccc3n2)c1	-3	1966	12	3	-15	4	0.8
O=C(O)c1cc(N/N=C/C=C/c2ccccc2[N+](=O)[O-])ccc1Cl	-7	3335	nt	nt	-49	nt	nt
COc1ccc(NC(=O)Cn2nnc(C(=O)NCc3cccs3)c2N)c(OC)c1	11	3845	0	3	-7	-5	2.0
CCOC(=O)COc1ccccc1C=NNc1nnc2c3ccccc3n(C)c2n1	nt	nt	7	2	nt	7	3.1
CN(c1ccccc1)S(=O)(=O)c1cccc(C(=O)OCC(=O)NCc2ccc3c(c2)OCO3)c1	3	1923	14	4	-16	-5	4.9
CCOCCCNC(=O)CN1C(=O)/C(=C/c2ccccc2)Sc2ccccc21	-1	2322	2	11	-15	2	0.8
Cc1cnn(-c2cc(N/N=C/c3ccc(F)cc3)ncn2)c1	-1	2463	nt	nt	-5	nt	nt
Cc1ccc(CN2CC(C(=O)N(C)CC(=O)Nc3cccc(F)c3)CC2=O)cc1 (centres undefined)	3	6334	15	4	-32	2	4.3

Some of these compounds in order of formula weight, ascending.
SMILES	BJeLR viability	Bead autofluor	Mtb hypoxia inh	Mtb hypoxia inh growth	PrP UTR inh	Sa ugtP lethal	Sa RN4220 lethal
C/C(Cn1cnc([N+](=O)[O-])n1)=N\NC(=O)c1ccc(F)cc1	-3	3522	nt	nt	-1	nt	nt
CCOCCCNC(=O)CN1C(=O)/C(=C/c2ccccc2)Sc2ccccc21	-1	2322	2	11	-15	2	0.8
CN(c1ccccc1)S(=O)(=O)c1cccc(C(=O)OCC(=O)NCc2ccc3c(c2)OCO3)c1	3	1923	14	4	-16	-5	4.9

One compound at a time, as listed above. Order of values: BJeLR viability | Bead autofluor | Mtb hypoxia inh | Mtb hypoxia inh growth | PrP UTR inh | Sa ugtP lethal | Sa RN4220 lethal
`CC[C@]1(C(=O)OC)[C@H]2C(=O)N(Cc3ccccc3)C(=O)[C@H]2[C@H]2CN=C(SCc3ccc(C)cc3)N21` is listed as nt | 2948 | 1 | 3 | -14 | 4 | 9.5
`Cc1ccc(CN2CC(C(=O)N(C)CC(=O)Nc3cccc(F)c3)CC2=O)cc1` (centres undefined) is listed as 3 | 6334 | 15 | 4 | -32 | 2 | 4.3
`CCOCCCNC(=O)CN1C(=O)/C(=C/c2ccccc2)Sc2ccccc21` is listed as -1 | 2322 | 2 | 11 | -15 | 2 | 0.8
`CN(c1ccccc1)S(=O)(=O)c1cccc(C(=O)OCC(=O)NCc2ccc3c(c2)OCO3)c1` is listed as 3 | 1923 | 14 | 4 | -16 | -5 | 4.9
`Cc1cccc(C)c1NC(=O)CN(C)C(=O)C1CCN(c2ncnc3sc(C)c(C)c23)CC1` is listed as -14 | 6131 | 0 | 4 | -9 | 0 | -2.8

Additional structures follow:
SMILES	BJeLR viability	Bead autofluor	Mtb hypoxia inh	Mtb hypoxia inh growth	PrP UTR inh	Sa ugtP lethal	Sa RN4220 lethal
O=C(Cc1ccc(NC(=O)C2CCN(C(=O)C3CCC3)CC2)cc1)Nc1ccc(C(=O)N2CCOCC2)cc1	nt	3569	3	2	-13	6	1.8
CCCC(=O)Nc1ccc(C(=O)NCCc2ccc(F)cc2)cc1	1	2199	1	9	-29	7	4.2
CC(=O)c1ccc(S(=O)(=O)N2CCC(NC(=O)c3ccccc3)CC2)cc1	-4	4314	-9	0	-24	5	0.4
CN(CC(=O)N1CCN(c2ccc(F)cc2)CC1)S(=O)(=O)c1ccc(F)cc1	-6	2909	-3	1	-6	-1	2.9
COc1ccc2nc(SCC(=O)Nc3ccc(S(=O)(=O)N4CCCC4)cc3)c(C#N)cc2c1	16	10582	0	16	-12	-8	0.4
CCCCOc1ccc(Cl)cc1Nc1nc(NCCO)nc(N2CCCC2)n1	-1	3976	3	-2	-21	7	3.9
CCSc1nnc(NC(=O)c2cc(-c3ccccc3O)n[nH]2)s1	-5	4364	9	1	-13	6	6.8
COC(=O)c1ccccc1NCCO	2	3799	14	7	-14	11	4.7
COc1ccc(C2=NN3C(=O)c4c(ccc(OC)c4OC)C3C2)cc1 (centres undefined)	13	2340	9	12	-21	-6	-12
COc1cc2cc(CCOC(=O)c3ccco3)oc(=O)c2cc1OC	nt	3760	7	7	-18	6	8.7
C/C(=N\NC(=O)c1nnn(-c2nonc2N)c1-c1ccccc1)c1ccccc1O	12	4097	nt	nt	37	nt	nt
C/C(CC(=O)Nc1c(C)cc(C)cc1C)=N\NC(=O)OC(C)(C)C	-8	2352	nt	nt	-11	nt	nt
Cn1c(=O)c2c(ncn2CC(=O)NN=Cc2c[nH]c3ccccc23)n(C)c1=O	nt	nt	-9	3	nt	5	2.0
O=C(CCSCCC(=O)N1CCCC1)N1CCCC1	-4	8918	5	5	12	-6	-1.9
Cc1ccc(S(=O)(=O)C2(C(=O)NCc3ccccc3Cl)CC2)cc1	-9	4755	-2	1	-23	-4	4.3
O=C(COC(=O)C12CC3CC(CC(Br)(C3)C1)C2)Nc1c(F)cccc1F	nt	3493	13	4	-4	4	11
CC(C)(CNC(=O)c1ccccc1F)CNC(=O)c1ccccc1F	-7	6203	13	3	-27	7	3.1
COc1ccc(C(=O)Nc2ccc(NC(=O)c3cccs3)cc2)cc1Cl	-1	2458	2	1	-13	-12	8.7
Cc1ccc2c(c1)N(CC(=O)NC1CCCCCC1)C(=O)c1cccnc1O2	-7	5746	-5	-3	-12	-7	-6.5
CCc1nnc(NC(=O)CN2CC(C)OC(C)C2)s1 (centres undefined)	0	3060	-3	-4	-15	-3	-0.3
Cc1nn(C(=O)c2ccc3c(c2)OCO3)c(N)c1-c1ccccc1	2	5424	0	5	-8	-2	3.0
CC(NC1CCCCC1)C(O)C12CC3CC(CC(C3)C1)C2 (centres undefined)	1	5358	6	3	-35	2	3.7
CC(=O)NCCN=Cc1sc2ccccc2c1O	-5	4948	nt	nt	-22	2	0.3
CN1CCN(CCC(=O)Nc2ccc(OCc3ccccc3)cc2)CC1	-1	5490	4	8	-36	4	3.1
CC(=O)c1ccccc1OC(=O)c1ccco1	-3	8843	-1	-3	-7	-2	7.4
Cc1ccc2nc(-c3ccc(SCC(=O)Nc4ccc5c(c4)OCCO5)nc3)[nH]c2c1	3	2110	4	2	-193	30	13
O=C1COc2ccc(S(=O)(=O)Nc3cccc(Cl)c3)cc2N1	10	5881	0	1	-6	-7	7.2
Cc1ccc(NC(=O)CS(=O)CC(=O)N(CC(=O)NC(C)(C)C)c2cccc(C)c2C)cc1 (centres undefined)	-10	3076	9	5	-20	6	7.4
Cn1c(CCNS(=O)(=O)c2ccccc2)nc2cc([N+](=O)[O-])ccc21	-14	4504	7	8	-10	1	3.2
O=C(NCc1cc(C(F)(F)F)ccc1Cl)c1cccc2c1C(=O)c1ccc(N3CCC(Cc4ccccc4)CC3)cc1S2(=O)=O	nt	5976	-2	6	-28	5	8.4

Random excerpt: 5 entries already listed.
SMILES	BJeLR viability	Bead autofluor	Mtb hypoxia inh	Mtb hypoxia inh growth	PrP UTR inh	Sa ugtP lethal	Sa RN4220 lethal
O=C(COC(=O)C12CC3CC(CC(Br)(C3)C1)C2)Nc1c(F)cccc1F	nt	3493	13	4	-4	4	11
C/C(Cn1cnc([N+](=O)[O-])n1)=N\NC(=O)c1ccc(F)cc1	-3	3522	nt	nt	-1	nt	nt
Cc1nn(C(=O)c2ccc3c(c2)OCO3)c(N)c1-c1ccccc1	2	5424	0	5	-8	-2	3.0
CCOCCCNC(=O)CN1C(=O)/C(=C/c2ccccc2)Sc2ccccc21	-1	2322	2	11	-15	2	0.8
Cn1c(CCNS(=O)(=O)c2ccccc2)nc2cc([N+](=O)[O-])ccc21	-14	4504	7	8	-10	1	3.2

Further compounds
SMILES	BJeLR viability	Bead autofluor	Mtb hypoxia inh	Mtb hypoxia inh growth	PrP UTR inh	Sa ugtP lethal	Sa RN4220 lethal
CC(=O)c1c(C)[nH]c(C(=O)CSc2nnc3ccccn23)c1C	4	2441	-5	-8	-3	2	1.1
CC(=O)c1cccc(NC(=O)CSc2nnc(-c3ccncc3)o2)c1	nt	3388	3	0	-21	3	0.3
O=c1[nH]c(=O)n(Cc2ccco2)c(O)c1/C=N/N1CCCCCC1	-5	6873	7	-6	-8	-2	2.2
CCOC(=O)c1sc2nc3n(c(=O)c2c1C)CCCCC3	-4	4311	nt	nt	-52	3	-0.1
CC(C)C(=O)Nc1cccc(C(=O)Nc2ccccc2C(=O)O)c1	-4	20875*	8	6	-9	-5	2.3
Cc1ccc(NC(=S)N2CCOCC2)cc1	0	2116	9	5	-21	3	3.1
O=C1c2ccccc2C(=O)N1Nc1ccc([N+](=O)[O-])cc1[N+](=O)[O-]	-9	3747	5	-11	-26	2	-2.8
COc1ccc(-c2cc(=O)oc3cc(OCC(=O)N4CCOCC4)ccc23)cc1	0	3930	11	5	-19	-1	-4.8
CCOC(=O)c1c(NC(=O)COC)sc(C(C)=O)c1C	-12	11035	4	6	-12	0	4.9
CCCCn1nc2cc(C(=O)N(CC)c3ccc(OC)cc3)ccc2c1OCC	4	3952	4	6	-33	8	6.8
O=C(CSc1ncccc1C(=O)O)Nc1ccc2c(c1)OCCO2	-5	5903	nt	nt	-14	nt	nt
Cc1cc(OCC(=O)N2CCN(c3cccc(Cl)c3)CC2)c2c(C)c(C)c(=O)oc2c1	4	4785	-3	1	-4	0	1.2
O=S(=O)(/C=C/c1ccccc1)Nc1cccc(S(=O)(=O)NC2=NCCC2)c1	1	4363	nt	nt	-15	nt	nt
Cc1cccc(CC(=O)NCCN2CCCCC2)c1	-11	3439	-5	-6	-10	5	-2.9
